# FGF22 binding – binders of human FGF22 protein, primary screen, FGF22 synaptogenesis inhibitor project, biophysical, thermal shift, single point; Fibroblast growth factor 22 (Homo sapiens), Q9HCT0; recombinant FGF22 thermal shift, SYPRO orange fluorescence; percent of sucrose octasulfate shift, DMSO zero; calls only at 9.99 µM; hit rate 1.5% among 340,000;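 active = melting point raised past a set limit in the mean and every replicate; inconclusive = no clear call; three in four hits are not shown here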
# Target sequence (Q9HCT0 whole entry, looked up): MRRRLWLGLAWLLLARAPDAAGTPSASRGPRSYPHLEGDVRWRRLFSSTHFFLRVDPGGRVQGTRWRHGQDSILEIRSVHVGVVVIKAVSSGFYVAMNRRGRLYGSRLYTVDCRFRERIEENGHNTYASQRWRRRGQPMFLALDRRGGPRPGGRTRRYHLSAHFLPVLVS
# MLL AF4-AF9 inh – inhibitors of AF4 peptide binding to AF9, primary screen, biochemical, AlphaScreen, biotin-AF4 peptide, FLAG-AF9, single point; Protein AF-9 (Homo sapiens), P42568; inhibition, % at 10 µM; hit rate 0.47% among 350,000; AID 651704, 2012;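 active = every replicate reaching a set inhibition limit, whatever the replicate mean, cut at about 25% in these data; inconclusive = mean inhibition reaches that limit but some replicates miss it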;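 also: 0% = plate neutral control median and 100% = total signal loss; the record names both 10 and 1 µM as test concentration; the first replicate is given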
# RanGTP-Imp inh – inhibitors of RanGTP-importin-beta interaction, primary screen, biochemical, FRET, CFP-Ran, YFP-importin-beta, homogeneous; cell-free CFP-Ran/YFP-importin-beta FRET ratio; hit rate 1.1% among 300,000; inhibition, % (no concentration beside the values);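 active = most replicates above 15%; inconclusive = exactly half above 15%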;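 also: 0% = DMSO wells and 100% = Ran loaded with GDP instead of GTP; wells of about 40 µL received 100 nL stock; the first replicate is given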
# Vif A3G – inhibitors of Vif binding to APOBEC3G peptide, primary screen, biochemical, TR-FRET, GST-Vif 1-94, biotin-A3G peptide, dose response retest (AID 1117319); Virion infectivity factor (Human immunodeficiency virus type 1 group M subtype B (isolate …; TR-FRET GST-Vif / biotin-A3G peptide binding; higher % means a stronger effect; test concentration not given here; strong numbers were not always called active; one-dose inhibition, %; IC50 in µM for titrated hits; hit rate 0.57% among 260,000;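 active = above the screen mean plus three standard deviations and confirmed in dose response; inconclusive = results disagree or hit not tested in dose response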;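 also: Vif residues 1-94 fused to GST binding biotinylated APOBEC3G peptide 110-148; 0% = full assay without inhibitor and 100% = GST in place of GST-Vif; retest series ran down from 100 µM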
# Ecoli growth – E. coli growth inhibition, primary screen, OD600; Escherichia coli growth, 23 h; hits give low values; OD600 absorbance (concentration not given with the values); hit rate 0.21% among 330,000;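 active = OD600 absorbance below the run mean of sample wells minus 3.6 SD, in any replicate, cut at about 0.56 in these data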;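 also: stock transfer was 300 nL into about 60 µL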
# UCH37 inh – inhibitors of human UCH37 deubiquitinase, primary screen, biochemical, Ub-AMC cleavage, fluorescence. Ubiquitin carboxyl-terminal hydrolase isozyme L5 (Homo sapiens), Q9Y5K5. purified proteasome/UCH37. inhibition, % (no concentration beside the values). hit rate 0.33% among 330,000. AID 588478, 2011;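 active = mean of two replicates above 20%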;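 also: 0% = compound-free wells with enzyme and 100% = wells lacking proteasome; stock transfer was 100 nL into about 20 µL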
# Target sequence (Q9Y5K5 whole entry, looked up): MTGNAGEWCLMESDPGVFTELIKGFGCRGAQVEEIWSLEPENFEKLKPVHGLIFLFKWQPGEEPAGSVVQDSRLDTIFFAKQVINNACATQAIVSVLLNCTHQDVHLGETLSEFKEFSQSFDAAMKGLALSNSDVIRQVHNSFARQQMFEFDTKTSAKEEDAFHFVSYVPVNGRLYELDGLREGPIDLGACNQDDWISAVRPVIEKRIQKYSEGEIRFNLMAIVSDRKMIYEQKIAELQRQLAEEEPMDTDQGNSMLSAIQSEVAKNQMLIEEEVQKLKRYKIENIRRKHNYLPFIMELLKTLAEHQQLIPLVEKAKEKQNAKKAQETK
#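 system = Proteasome-associated human UCH37 deubiquitinase | amount = 0.15 nM proteasome as dispensed | medium = pH 7.4 Tris-HCl (50 mM) with ovalbumin, ATP-MgCl2, DTT | incubation = 30 min preincubation with enzyme, 25 min cleavage at room temperature | detection = AMC fluorescence 355/460 nm | read-out basis = percent inhibition | controls = no-proteasome and no-compound wells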
# HNF4A DNA FP – change in binding of human HNF4A to DNA, primary screen, biochemical, fluorescence polarization, FITC-DNA; Hepatocyte nuclear factor 4-alpha (Homo sapiens), P41235; 1 h; activity change, % at 10 µM; hit rate 0.3% among 360,000; AID 1224865, 2016; in the data active = activity change above about 30%, passing the limit was not always enough;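 also: controls were the assay level and a saturating level of protein; the project sought stronger binding though the title names inhibitors; some compounds called inactive have numbers as strong as hits; positive values seem to mean higher polarization but the record does not say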
# Target sequence (P41235 whole entry, looked up): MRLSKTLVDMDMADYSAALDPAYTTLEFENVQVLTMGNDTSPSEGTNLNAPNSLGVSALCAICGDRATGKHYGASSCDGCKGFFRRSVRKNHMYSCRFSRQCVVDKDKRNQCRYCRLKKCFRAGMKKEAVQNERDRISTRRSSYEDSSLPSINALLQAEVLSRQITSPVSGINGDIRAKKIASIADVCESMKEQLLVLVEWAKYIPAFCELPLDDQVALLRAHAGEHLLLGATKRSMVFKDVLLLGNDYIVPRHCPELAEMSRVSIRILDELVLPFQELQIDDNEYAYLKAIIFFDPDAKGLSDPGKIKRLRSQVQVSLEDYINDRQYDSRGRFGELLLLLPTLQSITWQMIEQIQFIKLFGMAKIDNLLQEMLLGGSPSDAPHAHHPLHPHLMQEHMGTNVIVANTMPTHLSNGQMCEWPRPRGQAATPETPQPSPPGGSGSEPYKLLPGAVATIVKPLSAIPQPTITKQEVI
# Starred values were filed as active, the others as inactive; i = inactive; ? = inconclusive; / = not tested or not shown; & = joins results of further samples. This is a subset. The share of hits here may be higher or lower than overall.
SMILES,FGF22 binding,MLL AF4-AF9 inh,RanGTP-Imp inh,Vif A3G,Ecoli growth,UCH37 inh,HNF4A DNA FP
O=C(O)Cc1nc2nc3c(c(=O)n2[nH]1)CCCC3,/,/,-1.4,?,0.686,0.2,-1.1
CCC(CC)C(=O)Nc1c2c(nn1-c1ccc(F)cc1)CS(=O)(=O)C2,i,2.0,-3.9,-0.9%,0.711,1.2,0.9
COCCNc1ncnc2c1ncn2[C@H]1CN(CCOC)C[C@@H](CO)O1,i,-4.0,/,/,/,/,2.5
S=C1NCCc2ccccc2C1c1ccccc1 (stereo not drawn),/,/,-1.1,6.2%,0.747,4.8,3.2
COc1ccc(S(=O)(=O)N2CCCCCC2)cc1C(=O)NCc1ccc(C)cc1,i,-9.1,/,-1.8%,0.696,-0.5,-1.6
Nc1c(C(=O)N2CCCC2)sc2nc3c(cc12)CCCCCC3,i,-5.8,-2.8,-12.1%,/,/,-1.2
COCC(=O)OCc1cc2cccc(C)c2[nH]c1=O,i,-13.7,-2.3,28.5%,0.643,-1.1,-1.7
Cc1ccc(C(C)C)cc1OCC(=O)NCCCn1ccnc1,i,-0.6,/,1.6%,0.716,2.5,-0.1
CCN(CC(=O)Nc1ccc(NC(C)=O)cc1)C(=O)C1CC(=O)N(CCc2ccc(OC)c(OC)c2)C1 (stereo not drawn),i,-1.1,-2.5,-11.9%,0.708,-0.4,6.8
CCOc1cc(C(=O)NCc2ccc(F)cc2)ccc1OCC(=O)N1CCCCC1,i,-3.2,/,-4.8%,0.678,0.1,2.3
CC(C)C(=O)NCCc1nc2ccccc2n1CCCOc1ccc(Cl)cc1,/,/,-3.3,-4.6%,0.711,2.7,1.8
CCN(CC(=O)NC1CC1)S(=O)(=O)c1ccc(C)cc1,i,-0.1,2.2,/,0.625,1.9,5.5
CSc1ccc(Cl)c(C(=O)NCCCn2ccnc2)c1,i,-2.2,-3.3,-5.7%,0.627,6.2,2.8
CC(=O)Nc1nnc(-c2ccc(Cl)s2)o1,i,45.1*,2.7,0.5%,0.736,-1.2,0.0
CC(NC(=O)c1c(O)c2ccccc2n(C)c1=O)c1ccccc1 (stereo not drawn),i,-6.8,0.6,?,/,/,-3.2
O=c1cc(-c2ccc(OCc3ccccc3)cc2)oc2cc(OCc3ccccc3)cc(OCc3ccccc3)c12,i,-2.1,/,-15.3%,0.767,2.2,-7.0
COc1ccc(Nc2cccc(Cl)c2)c(C(=O)O)c1,/,/,0.5,4.8%,0.64,3.0,4.2
CC(C)(C)Cc1c(-c2cccc(Cl)c2)nc2ccc(Br)cn12,i,9.7,/,/,/,/,17.6
Cc1cccc(C)c1NC(=O)CSc1n[nH]c(=O)n1C1CC1,i,1.9,/,/,0.673,-1.5,1.3
COc1ccc(/C=N/N2C(C)CCCC2C)cc1O (stereo not drawn),i,0.6,3.3,-1.6%,/,/,-1.1
CCOC(=O)N1CCN(C(=O)COC(=O)CNC(=O)c2ccc(C)cc2)CC1,i,-0.4,-0.5,5.2%,0.724,-1.9,-1.7
O=C(CCc1nnc(CCCCc2ccccc2)o1)N1CCCC(O)C1 (stereo not drawn),i,6.7,?,20.0%,0.735,2.1,6.8
CC(C)c1c(O)nc(SCCN(C)C)[nH]c1=O,/,/,3.0,-4.4%,0.718,5.1,6.9
COc1ccccc1-c1cccc([C@@H]2C[C@H]3[C@@H](CN2)CON3C)c1,i,3.1,/,-0.6%,/,/,5.2
NC(=O)CC(NC(=S)NCc1ccccc1)C(=O)O (stereo not drawn),/,/,-2.8,7.2%,0.709,3.5,0.7
CC1CCCC(NC(=O)CSc2nncs2)C1C (stereo not drawn),i,0.8,/,-2.1%,0.712,-0.1,-1.3
FC(F)(F)c1cccc(NC(=S)NNC(=S)NCc2ccccc2)c1,/,/,3.5,24.3%,0.67,3.3,-5.6
CN(C)S(=O)(=O)c1ccc(Cl)c(NC(=O)CN2CCCC2)c1,i,-2.5,-0.1,/,0.646,2.9,0.7
CCOc1ccc(NC(=O)C2CCCN(S(=O)(=O)c3cccc4nsnc34)C2)cc1 (stereo not drawn),i,2.2,-7.0,-3.5%,0.671,2.2,2.8
CC(=O)Nc1sc2c(c1C#N)CCN(Cc1ccccc1)C2,i,-4.1,75.3*,/,0.773,3.4,2.2
CC(C)(C)NC(=S)NCc1ccc2c(c1)OCO2,i,-3.3,-2.0,-10.3%,0.704,1.0,-0.5
CC(=O)Nc1ccc(-c2ccnc3c2CC(C)(C(=O)NCc2ccncc2)O3)cc1 (stereo not drawn),i,-4.1,/,/,/,/,1.5
COC(=O)c1ccc(OC)c(OC)c1Cl,i,-1.4,5.3,-4.1%,0.701,3.9,2.2
Cc1cc(Br)ccc1OCc1nc(-c2cccnc2)no1,/,/,-0.2,-6.3%,0.793,2.5,1.2
C[C@H](CO)N1C[C@H](C)[C@H](CN(C)C(=O)Nc2ccc(-c3cccs3)cc2)OCc2cnnn2CCCC1=O,i,3.3&1.4,/,-0.2%,/,/,-0.2
COc1ccc(-c2cc(C(=O)Nc3ccc(C)c(C)c3)no2)cc1,i,-2.4,-2.8,-1.1%,0.644,-44.2,3.3
O=[N+]([O-])c1cccc(/C=N/Nc2nccnc2Cl)c1,/,/,-2.1,28.9%,/,/,-2.3
COc1ccccc1NC(=S)NNC(=S)Nc1ccc(OC(F)F)cc1,/,/,0.4,30.1%,/,2.5,2.6
CC(C)(C)c1ccc(C(=O)O/N=C(\N)c2ccccn2)cc1,i,-1.3,7.2,/,/,/,0.1
COc1ccc(CNC(=O)CN(Cc2ccccc2F)C(=O)c2csnn2)cc1,i,2.2,3.1,-2.7%,0.611,2.7,1.6
COc1cccc(OCc2nc(-c3cccc([N+](=O)[O-])c3)no2)c1,/,-0.1,0.9,-5.4%,0.649,-0.2,-2.4
O=C(NCCCN1CCCC1=O)c1ccc(S(=O)(=O)Nc2ccccc2F)cc1,i,-14.2,1.4,-4.7%,0.722,-3.5,0.5
CC1CN(C(=O)COc2ccc3c(-c4ccccc4)cc(=O)oc3c2)CC(C)O1 (stereo not drawn),i,1.5,/,-12.1%,0.702,-5.5,2.8
Cc1ccccc1C(=O)N1CCCN(C(=O)c2ccccc2C)CC1,/,/,0.9,-0.3%,0.665,7.3,1.6
CCNc1nc(Oc2ccc(C(=O)OC)cc2)nc(SC)n1,/,/,?,19.6%,0.709,3.4,1.8
O=S(=O)(c1ccccc1)N1CCC(n2cnc3ccccc32)CC1,i,-14.2,3.3,/,0.689,-0.4,-1.0
Oc1[nH]c2ccccc2c1/C=N/N1CCCCC1,/,/,0.9,-2.1%,/,/,-4.0
O=C(c1nsnc1-c1ccccc1O)N1CCCCC1,/,/,2.0,0.9%,0.733,1.7,-1.4
Cc1ccccc1CCNC(=O)C1CC(O)CN1C(=O)Nc1ccccc1 (stereo not drawn),i,-0.5,-1.7,2.6%,/,/,-2.5
CCOc1cccc(CN2CCC(n3nccc3NC(=O)c3ccc4c(c3)OCO4)CC2)c1,i,-2.2,-0.8,-3.7%,0.696,3.6,0.9

# Shown with two lines to a compound: entries from further up.
# Results follow in this order: FGF22 binding | MLL AF4-AF9 inh | RanGTP-Imp inh | Vif A3G | Ecoli growth | UCH37 inh | HNF4A DNA FP
- NC(=O)CC(NC(=S)NCc1ccccc1)C(=O)O (stereo not drawn)
    / | / | -2.8 | 7.2% | 0.709 | 3.5 | 0.7
- CC1CCCC(NC(=O)CSc2nncs2)C1C (stereo not drawn)
    i | 0.8 | / | -2.1% | 0.712 | -0.1 | -1.3

# Further structures:
SMILES,FGF22 binding,MLL AF4-AF9 inh,RanGTP-Imp inh,Vif A3G,Ecoli growth,UCH37 inh,HNF4A DNA FP
CCOC(=O)COc1ccc(/C=C/[N+](=O)[O-])c(OCC(=O)OCC)c1,/,/,-2.9,?,0.709,-1.4,1.7
O=C(c1ccc2c(c1)N(Cc1cccc(Cl)c1)C(=O)c1ccccc1S2(=O)=O)N1CCN(c2ccccn2)CC1,i,2.4,1.4,13.2%,0.728,0.9,5.2
CN(C(=O)c1cccnc1)c1nnc(-c2ccccn2)s1,/,/,1.2,0.7%,0.67,-21.6,1.4
CC(=O)OCCC(NS(=O)(=O)OCC(Cl)(Cl)Cl)c1ccccc1 (stereo not drawn),i,/,6.5,/,0.694&0.655,-0.1,-1.6
CCOc1ccc(NC(=O)CN2C(=O)CSC2=O)cc1,i,-1.9,-6.4,3.0%,0.684,3.0,3.5
O=C(CSc1n[nH]c(=O)n1Cc1ccccc1)Nc1ccc(N2CCOCC2)cc1,i,-1.6,/,3.2%,0.689,1.5,1.8
O=C1CSC(=S)N1N=Cc1cccc(OCc2ccccc2)c1,i,-1.3,/,4.4%,/,/,4.5
Cc1ccc(-c2noc(CN3CCOCC3)n2)cc1,/,/,3.5,2.9%,0.703,2.6,-0.6
COc1ccccc1OCc1ccc(C(=O)N/N=C/c2ccco2)cc1,i,2.4,3.2,/,/,/,2.8
CCOc1ccc(CN2C(=O)CC(=O)N(S(=O)(=O)c3ccc(OCC)cc3)C2=O)cc1,/,-52.5,4.1,-9.3%,0.667,5.1,5.3
CCC1CCCCN1CCCNC(=O)CN1C(=O)CSc2ccc(S(=O)(=O)N3CCOCC3)cc21 (stereo not drawn),i,-0.6,3.8,-6.8%,0.7,1.7,0.5
COc1cc(C)c(CN2CCN(CC(=O)Nc3ccccc3C(=O)NC3CC3)CC2)cc1OC,i,2.2,/,-2.2%,0.673,0.4,0.3
Cc1c(N=C(N)/N=C(\N)Nc2ccc(Br)cc2)c(=O)n(-c2ccccc2)n1C,i,5.0,-5.3,14.7%,/,/,1.9
CCOC(=O)c1sc(N)c(C#N)c1COC(=O)CNC(=O)c1ccccc1,/,/,-1.6,1.3%,0.707,3.4,73.9*
c1ccc(CN2CCN(Cc3nnc(-c4ccccc4)o3)CC2)cc1,i,-1.2,-2.7,0.8%,0.69,3.4,2.3
Cc1ccc(C)c(NC(=O)C(Sc2nnc(-c3cccs3)o2)c2ccccc2)c1 (stereo not drawn),/,/,/,?,0.673,1.4,2.8
CC(Cn1cnc2ccccc21)C(=O)O (stereo not drawn),i,0.8,1.5,-1.4%,0.673,0.7,2.7
O=C(Nc1ccccc1N1CCOCC1)C1Cc2ccccc2CN1C(=O)c1ccco1 (stereo not drawn),/,/,-0.4,29.1%,0.738,2.3,0.7
O=C(O)c1ccc(N=NN2CCCC2)cc1,i,-0.4,3.1,0.8%,0.66,10.9,5.0
Cc1[nH]c2ccccc2c1/C=C(\C#N)C(=O)NC1CC1,i,0.2,-0.7,/,0.708,9.5,-3.4
CCCC(=O)OCCNc1cc(Sc2nccn2C)c2nonc2c1[N+](=O)[O-],/,/,0.0,?,0.685,6.4,-2.6
FC(F)(F)c1cccc(CNC2c3ccccc3-c3ccccc32)c1,i,-3.2,2.4,-2.4%,0.668,1.3,-3.2
COc1ccc(Nc2c(-c3ccc(OC)cc3)nc3cnccn23)cc1,i,-44.6,1.7,1.6%,0.708,-48.1,4.9
CN=c1scc(-c2ccc(Br)cc2)n1C,/,/,1.3,-3.6%,0.678,6.0,2.3
CCSCc1nnc(SCC(=O)Nc2nc3ccccc3s2)n1C,/,/,4.7,-4.0%,0.768,1.0,1.9
Nc1c(C(=O)Nc2ccccc2F)sc2nc(-c3cccnc3)ccc12,i,-0.9,-47.9,-6.9%,0.681,-14.2,16.7
N#C/C(C(=O)Nc1ccc(Cl)cc1)=C(/S)Nc1ccccc1,i,-0.9,1.2,/,/,/,-2.1
